Source: PubChem BioAssay
MARV entry inh = qHTS for inhibitors of binding or entry into cells for Marburg Virus; AID 540276, 2011; Potency, µM (highest dose often 37.8 µM), without a hit: at the top dose activity change, negative = inhibition, most hits filed as inhibitors; 1.8% of 300,000 active; Marburg virus pseudotyped entry inhibition, cell reporter; control for the full effect not named in the record; about a third of the inactives were read at about 46 µM; active = well fitted inhibition curve with a large enough effect; inconclusive = small, poorly fitted or top-dose-only effect, or effect the other way; inactive = flat fitted curve, though single readings scatter; tested in HEK293 cells; about a fifth of its hits are not listed in these tables; note: % is set by controls: 0 for no effect and ±100 for the full control effect; luciferase read-out
2A StopGo = High Throughput Screening for Foot and Mouth Disease Virus Antivirals; human cells with a luciferase reporter of 2A StopGo recoding; control for the full effect not named in the record; Potency, µM (doses to about 57.9 µM), for inactives: at the top dose signal change, negative = less light; 1.2% of 410,000 active; AID 1159524, 2015; active = well fitted falling curve with a large enough effect; inconclusive = small, poorly fitted or top-dose-only effect; inactive = no such curve, though single readings can be large or run the other way; tested in HEK293T cells; note: % is set by controls: 0 for no effect and ±100 for the full control effect; nearly all actives have a fitted effect of over 45% in size; luciferase light after 4 h
RE007 growth inh = qHTS Assay for Inhibitors of the HIV-1 protein Vpr; S. pombe RE007 Vpr strain, BacTiter-Glo ATP luminescence, 24 h; control for the full effect not named in the record; Potency, µM (doses to about 92.2 µM), without a hit: at the highest dose activity change, negative = less growth; 0.21% of 360,000 active; AID 651644, 2012; active = well fitted falling curve with a large enough effect; inconclusive = small, poorly fitted or top-dose-only effect; inactive = no such curve, though single readings can be large or run the other way;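 note: % is set by controls: 0 for no effect and ±100 for the full control effect; nearly all actives have a fitted effect of over 50% in size; the assay follows cell death caused by Vpr and the record does not say whether a fall means rescue or toxicity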
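Fission yeast strain RE007, carrying one chromosomally integrated HIV-1 vpr copy, was seeded at OD 0.01 in PMG+AL medium with 23 nL pinned compound. After 24 h at 30 °C and 99% humidity, viability was read by BacTiter-Glo luminescence.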
Lassa entry inh = qHTS for Inhibitors of binding or entry into cells for Lassa Virus; Lassa virus pseudotype entry inhibition, cell reporter; control for the full effect not named in the record; Potency, µM (series often up to 37.9 µM), for the others: top-dose activity change, negative = inhibition, hits mostly inhibitors; AID 540256, 2011; 1.2% of 300,000 active; active means well fitted inhibition curve with a large enough effect; inconclusive means small, poorly fitted or top-dose-only effect, or effect the other way; inactive means flat fitted curve, though single readings scatter; tested in HEK293 cells; note: % is set by controls: 0 for no effect and ±100 for the full control effect; nearly all actives have a fitted effect of over 50% in size; luciferase read-out
Cruzain noTriton = qHTS Assay for Promiscuous and Specific Inhibitors of Cruzain (without detergent) | Cruzipain (Trypanosoma cruzi), P25779 | Potency, µM, without a hit: max response, negative = inhibition, hits mostly inhibitors | purified cruzain, Z-FR-AMC fluorescence, no detergent | 2.3% of 200,000 active; active = well fitted curve in the direction sought with a large enough effect; inconclusive = small, poorly fitted or top-dose-only effect, or another doubt; inactive = no such curve, though single readings can be large; an effect the other way counts as inactive or inconclusive;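 note: plate controls were enzyme without inhibitor for no effect and buffer without enzyme for full effect; nearly all actives have a fitted effect of over 40% in size; top concentration of the series not given in the record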
Target sequence (P25779 123-467 limits assumed): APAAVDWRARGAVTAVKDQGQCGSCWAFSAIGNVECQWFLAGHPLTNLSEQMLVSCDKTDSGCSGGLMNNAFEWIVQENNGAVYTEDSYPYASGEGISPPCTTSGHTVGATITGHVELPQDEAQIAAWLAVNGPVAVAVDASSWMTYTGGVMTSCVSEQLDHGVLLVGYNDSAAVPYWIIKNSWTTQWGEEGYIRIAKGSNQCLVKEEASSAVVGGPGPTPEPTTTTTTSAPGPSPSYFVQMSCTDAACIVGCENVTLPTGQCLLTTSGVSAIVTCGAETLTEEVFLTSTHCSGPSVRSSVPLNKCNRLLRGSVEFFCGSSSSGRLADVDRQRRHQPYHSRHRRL
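Detergent-free condition (0.00005% Triton X-100) in acetate buffer pH 5.5 with DTT. 1.5 nM enzyme and compound were pre-mixed 15 min, then 2 uM Z-FR-AMC substrate added; reaction progress from fluorescence change between first and third reads (60 s).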
Cruzain Triton = qHTS Assay for Promiscuous and Specific Inhibitors of Cruzain (with detergent) | Cruzipain (Trypanosoma cruzi), P25779 | 0.43% of 200,000 active | Potency, µM, for the others: max response, negative = inhibition, most hits filed as inhibitors | purified cruzain, Z-FR-AMC fluorescence, 0.01% Triton; active = well fitted curve in the direction sought with a large enough effect; inconclusive = small, poorly fitted or top-dose-only effect, or another doubt; inactive = no such curve, though single readings can be large; an effect the other way counts as inactive or inconclusive;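 note: plate controls were neutral wells for no effect and buffer without enzyme for full effect; nearly all actives have a fitted effect of over 40% in size; top concentration of the series not given in the record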
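In this qHTS format, compounds are incubated with 1.5 nM cruzain for 15 min at room temperature before 2 uM Z-FR-AMC is added. Release of AMC is followed at 360/450 nm, and progress is taken as the 60 s fluorescence difference.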
SARS PLP yeast = qHTS of Yeast-based Assay for SARS-CoV PLP; S. cerevisiae expressing SARS-CoV PLpro, growth rescue; control for the full effect not named in the record; Potency, µM (titrated, usually from 32.9 µM), inactives show at the top dose activity, positive = growth rescue; 0.19% of 330,000 active; AID 485353, 2010; note: 0% is about no effect; nearly all actives have a fitted effect of over 55% in size; growth read by luminescence after 48 h
NS1 inh = qHTS Assay for Inhibitors of Influenza NS1 Protein Function; S. cerevisiae slowed by influenza A NS1, growth recovery by OD600; AID 2326, 2010; 0.4% of 270,000 active; Potency, µM (doses to about 46.1 µM), without a hit: top-dose activity, positive = more growth; note: actives are rising curves; nearly all actives have a fitted effect of over 50% in size
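Growth recovery, yeast-based: influenza A NS1 expressed in S. cerevisiae causes slow growth, and suppressors are detected by OD600. The parent strain without NS1 is used as positive control.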
* marks the source's active call; other numbers are inactive results; ? = inconclusive; . = no result given; & = joins results of further samples; [ ] = remark or other dose. Unless noted, calls come from the whole dose curve; as a rule, active means well fitted rising curve with a large enough effect; inconclusive means small, poorly fitted or top-dose-only effect; inactive means no such curve, though single readings can be large or run the other way. Potency is the fitted concentration of half-maximal effect.

Below each SMILES – MARV entry inh | 2A StopGo | RE007 growth inh | Lassa entry inh | Cruzain noTriton | Cruzain Triton | SARS PLP yeast | NS1 inh
N/C(=N\OC(=O)CCC(=O)O)c1ncc(C(F)(F)F)cc1Cl
 : 15%[46.1 µM] | -19% | 3% | 6%[46.1 µM] | . | . | -2% | .
O=S(=O)(c1ccccc1)N1CCN(c2nc3ccccc3s2)CC1
 : 6% | 17% | 5% | 7% | -4% | 4.3% | 25% | ?
O=C(CCCN1C(=O)c2ccccc2C1=O)N1CCOCC1
 : ? | -4% | -27% | 0%[46.1 µM] | . | . | 0% | 2%
Cc1ccc(S(=O)(=O)N2CCC(=O)N(CCOC(=O)Nc3ccc(C)c(C)c3)CC2)cc1
 : ? | -27% | -7% | -3% | ? | 3.2%&0.7% | 3% | ?
COc1cccc(/C=N/NC(=O)c2ccc(COc3ccc(Cl)cc3Cl)o2)c1
 : 4% | 0% | 4% | -13% | -5% | -10.0% | -12% | 17%
Nc1ccccc1-n1cccc1
 : ? | 26% | 9% | 26%[46.1 µM] | . | . | -1% | 1%
O=C(C1CCN(S(=O)(=O)c2cccs2)CC1)N1CCN(c2ccccc2F)CC1
 : 28%[46.1 µM] | 13% | . | 0%[46.1 µM] | 0% | 4.4% | . | .
Cc1ccc(C(=O)NCc2ccc(Cl)c(Cl)c2)o1
 : 22% | -10% | 25µM* | ? | -1% | -2.5% | -6% | -113%
COc1ccc(CCN(C)C(=O)COC(=O)/C=C/c2ccc(C)o2)cc1OC
 : 6% | -10% | 4% | 24% | . | . | 1% | .
COc1ccccc1-n1ncc2c(=O)[nH]c(SCC(=O)Nc3cccc(F)c3)nc21
 : . | -16% | . | -16%[46.1 µM] | -8% | 1.2% | . | .
CCCCCC1CCC(C(=O)N2CCOCC2)CC1 (stereo unspecified)
 : 3% | -17% | 4% | -12% | . | . | -5% | -14%
CCCCNC(=O)Cn1cnc([N+](=O)[O-])n1
 : . | -8% | 4% | . | . | . | 0% | 2%
CCN(CC)c1ccc2cc(C(=O)Nc3cccnc3N3CCOCC3)c(=O)oc2c1
 : . | . | . | . | -6% | -0.1% | ? | 6%
Cc1c(C)c2ccc(OCC(=O)NCc3ccccn3)cc2oc1=O
 : . | 7% | -5% | . | . | . | 6% | 6%
Cc1ccccc1OC(=O)Cn1c(C(F)(F)F)nc2ccccc21
 : -3% | ? | -8% | 0% | -1% | -1.1% | 1% | -13%
O=C(NCCC1=CCCCC1)c1cc(S(=O)(=O)N2CCOCC2)ccc1Cl
 : -19%[46.1 µM] | ? | 12% | -3% | . | . | 4% | .
COC(=O)CSc1nnc(NC(=O)c2ccc3c(c2)OCO3)s1
 : . | -10% | 15% | . | . | . | -1% | 12%
CC[C@H](C)[C@H](NC(=O)OCc1ccccc1)C(=O)OCC(=O)Nc1ccc(N2CCOCC2)cc1
 : ? | -23% | 23% | -4% | . | . | 2% | .
Cn1ccnc1SCC(=O)Nc1ccc2c(c1)COC2=O
 : 24% | 29% | -1% | 7% | -15% | -1.7% | 15% | 2%
O=C(COC(=O)c1ccc([N+](=O)[O-])o1)NC1CCS(=O)(=O)C1 (stereo unspecified)
 : ? | -3% | -18% | 18% | 2% | -1.9% | 22% | -5%
COc1cc(OC)c2c(-c3cccc(-c4cccc(N)c4)c3)cc(=O)oc2c1
 : . | ? | 11% | . | 11µM* | 1.1% | 8% | .
N#Cc1ccc(C(c2nnnn2CCc2ccccc2)N2CCCCCC2)cc1 (stereo unspecified)
 : 21µM* | 13% | 11% | ? | -4% | -1.5% | -3% | -24%
COc1ccc(-n2nc(C)cc2Nc2ccccc2C(=O)O)cc1
 : . | -7% | 18% | . | . | . | 0% | 0%
O=C1CC(N2CCN(C(c3ccccc3)c3ccccc3)CC2)C(=O)N1 (stereo unspecified)
 : 12% | -24% | -11% | 0% | -3% | -1.6% | 3% | -10%
CCCN1CCN(S(=O)(=O)c2cn(C)nc2C)CC1
 : -5%[46.1 µM] | -6% | 2% | 20%[46.1 µM] | . | . | 4% | 5%
O=C(CSc1nncs1)NCCNC(=O)CSc1nncs1
 : -9%[46.1 µM] | -10% | 3% | 3% | . | . | 1% | .
COc1ccc(OC)c(NS(=O)(=O)c2ccc3[nH]c4c(c3c2)CCCCC4)c1
 : . | -11% | . | -18%[46.1 µM] | -23% | -7.7% | . | .
O=C(Nc1nc2c(s1)CCCC2)C1CCCN1C(=O)c1cccs1 (stereo unspecified)
 : -1% | 7% | 10% | -21% | 0% | -2.9% | 3% | 8%
Clc1ccc(-c2noc(CN(Cc3ccccn3)CC3CCCO3)n2)cc1 (stereo unspecified)
 : ? | ? | -6% | 11% | . | . | 0% | -7%
COC(=O)c1ccc(Oc2nc3c(c(=O)n(C)c(=O)n3C)n2Cc2ccc(Cl)c(Cl)c2)cc1
 : . | -12% | . | -1%[46.1 µM] | 10% | -0.2% | . | .

A stretch from the list above:
Below each SMILES – MARV entry inh | 2A StopGo | RE007 growth inh | Lassa entry inh | Cruzain noTriton | Cruzain Triton | SARS PLP yeast | NS1 inh
COc1ccc(-n2nc(C)cc2Nc2ccccc2C(=O)O)cc1
 : . | -7% | 18% | . | . | . | 0% | 0%
O=C1CC(N2CCN(C(c3ccccc3)c3ccccc3)CC2)C(=O)N1 (stereo unspecified)
 : 12% | -24% | -11% | 0% | -3% | -1.6% | 3% | -10%
CCCN1CCN(S(=O)(=O)c2cn(C)nc2C)CC1
 : -5%[46.1 µM] | -6% | 2% | 20%[46.1 µM] | . | . | 4% | 5%
O=C(CSc1nncs1)NCCNC(=O)CSc1nncs1
 : -9%[46.1 µM] | -10% | 3% | 3% | . | . | 1% | .

(further entries)
Below each SMILES – MARV entry inh | 2A StopGo | RE007 growth inh | Lassa entry inh | Cruzain noTriton | Cruzain Triton | SARS PLP yeast | NS1 inh
COc1ccccc1NC(=S)N(Cc1ccco1)Cc1cc2cc(C)ccc2[nH]c1=O
 : 4µM* | -3% | 5% | -12% | 9% | -2.7% | -14% | 3%
COc1ccc(C)cc1NC(=O)CN(C)C1CCCCC1
 : -18%[46.1 µM] | -2% | -3% | -18% | . | . | 0% | 12%
CCc1ccc2[nH]c(O)c(N=Nc3nc(-c4ccccc4)cs3)c2c1
 : ? | -28% | -17% | -21% | 20µM* | -4.8% | -5% | 17%
O=C1CC(Sc2cccs2)C(=O)N1c1ccccc1 (stereo unspecified)
 : -10%[46.1 µM] | 28% | ? | ? | . | . | -6% | -63%
Cc1ccc(N(CC(=O)NC2CCCCCC2)S(=O)(=O)c2c(C)nn(C)c2C)cc1
 : ? | 23% | 13% | -13% | ? | -3.2% | 2% | -10%
O=C1NCN(c2ccccc2)C12CCNCC2
 : 0% | ? | 0% | 0% | 3% | 1.2% | -2% | 6%
O=C(Oc1cccc(OC(=O)c2ccco2)c1)c1ccco1
 : . | -12% | 5% | . | . | . | 3% | -17%
Cc1ccc2nc(CN3CCN(S(=O)(=O)c4ccc(C(C)C)cc4)CC3)oc2c1
 : . | -8% | . | ? | -7% | -4.8% | . | .
O=S(=O)(c1cccs1)N1CCN(CC(O)COc2cccc(Br)c2)CC1 (stereo unspecified)
 : ? | ? | -13% | -1% | 4% | -4.1% | 4% | 0%
Cc1c(C(=O)N/N=C/c2ccncc2)nnn1-c1nonc1N
 : 21%[46.1 µM] | -1% | 0% | 1% | . | . | -2% | .
CN(C)CCCNC(=O)CCc1nc2ccccc2c(=O)[nH]1
 : 24% | -5% | 2% | 8% | -5% | 2.7% | -3% | 5%
COc1ccc2nc(C)cc(SCC(=O)Nc3c(C)cccc3C)c2c1
 : 15% | 0% | 10% | -3% | 1% | -1.2% | -26% | 7%
COc1ccc(CC(=O)N/N=C(\C)CC(=O)Nc2ccc3c(c2)OCCO3)cc1
 : -1%[46.1 µM] | 3% | 3% | ? | . | . | 1% | 10%
COc1cc(C2C3=C(CCCC3=O)Nc3ccc4ncccc4c32)ccc1O (stereo unspecified)
 : 2%[46.1 µM] | 25% | -15% | -1% | . | . | 0% | .
CCc1ccc2[nH]c(=O)c(CN(CCCN3CCOCC3)C(=O)Nc3ccc(F)cc3)cc2c1
 : ? | -19% | 4% | -11% | 1% | -0.6% | -13% | -2%
Fc1cccc(F)c1/C=N/NC(=S)Nc1cccnc1
 : -8%[46.1 µM] | 7% | -19% | 5% | . | . | 3% | .
CCCCC(=O)Nc1cnc(NC(=O)c2ccco2)cc1C
 : -6%[46.1 µM] | 31%[activator] | 68% | -19% | . | . | 2% | -1%
C/C(NC1CCCCC1)=C(/C#N)C(=O)NCCN1CCOCC1
 : -5% | -11% | -18% | -10% | 4% | 3.3% | -6% | -1%
O=C(O)/C=C/c1ccc(S(=O)(=O)N2CCCCCC2)cc1
 : 4%[46.1 µM] | 1% | -16% | 3% | . | . | 2% | .
COc1ccc(-c2cc(N)n(S(=O)(=O)c3ccc(C)cc3)n2)c(OC)c1
 : . | -21% | 11% | . | -3% | 0.0% | 1% | 5%
COc1cc(/C=C2\CCCc3c2nc2ccccc2c3C(=O)O)cc(OC)c1O
 : . | 2% | -4% | . | . | . | 1% | 0%
COc1ccc(S(=O)(=O)N2CCN(Cc3cccs3)CC2)cc1OC
 : -20% | ? | 4% | -21% | . | . | 2% | .
CCCNc1ncnc2nc[nH]c12
 : . | -11% | -14% | . | 3% | -3.1% | -2% | -36%
Cc1nc2c(nnn2Cc2ccccc2)c(=O)[nH]1
 : ? | -14% | -4% | 11% | . | . | 0% | .
Cc1ccc(-n2nc3c(N4CCC(C(=O)NC5CCCCC5)CC4)nnc(C)c3c2C)cc1
 : . | -9% | . | 16%[46.1 µM] | 2% | -5.2% | . | .
